# Bioassay records from PubChem BioAssay.
# B2AR ag: agonists of human beta-2 adrenergic receptor inducing internalization | 340,000 tested, 0.43% active | P07550 | Am2.2-beta2AR cells, FAP receptor internalization, flow cytometry; reference of the scale not given here | response, % (concentration not given with the values) | AID 504454;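 active means response above a set limit, near 3 SD of response in nonfluorescent compounds, cut at about 42% in these data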;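 further: stock transfer was 100 nL into about 11 µL; a reference agonist was the positive control; negative values mostly stem from fluorescent compounds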
# HNF4A DNA FP: change in binding of human HNF4 alpha to DNA | P41235 | HNF4a-FITC DNA binding, fluorescence polarization, 1 h | activity change, % at 10 µM | 360,000 tested, 0.3% active | AID 1224865; in the data active means activity change above about 30%, passing the limit was not always enough;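 further: controls were the assay level and a saturating level of protein; the project sought stronger binding though the title names inhibitors; some compounds called inactive have numbers as strong as hits; positive values seem to mean higher polarization but the record does not say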
# Target sequence (P41235 whole entry, looked up): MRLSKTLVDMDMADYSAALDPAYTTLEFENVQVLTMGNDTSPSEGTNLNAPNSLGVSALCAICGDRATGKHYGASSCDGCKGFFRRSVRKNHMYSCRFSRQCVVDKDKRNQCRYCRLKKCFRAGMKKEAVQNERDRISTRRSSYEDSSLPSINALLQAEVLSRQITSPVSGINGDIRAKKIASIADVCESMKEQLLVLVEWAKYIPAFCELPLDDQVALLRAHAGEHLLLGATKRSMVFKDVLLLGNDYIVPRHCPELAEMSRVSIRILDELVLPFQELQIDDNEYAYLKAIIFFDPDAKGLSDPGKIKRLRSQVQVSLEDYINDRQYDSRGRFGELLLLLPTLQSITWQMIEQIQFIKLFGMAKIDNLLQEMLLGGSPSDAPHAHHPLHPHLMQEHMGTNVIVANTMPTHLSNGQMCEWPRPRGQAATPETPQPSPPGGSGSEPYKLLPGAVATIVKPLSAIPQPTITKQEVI
# LANA-H2A inh: blocks KSHV LANA binding to histone H2A/H2B. inhibition, % (no concentration beside the values). cell-free LANA-H2A/H2B peptide, fluorescence polarization. 320,000 tested, 0.6% active. AID 2629. Q9QR71; in the data active means inhibition mostly above about 10%, no sharp cut-off; inactive means mostly below about 6.7%;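 further: stock transfer was 7.5 nL into about 10 µL; 0% = median of vehicle wells and 100% = median of positive control wells; one replicate is shown; the record names a cut of 25% in any replicate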
# A1 inh: inhibitors of the anti-apoptotic protein A1, read as caspase activation; MEF A1-2A-BIM cells, Caspase-Glo 3/7 luminescence, 3 h; percent of clofoctol response, vehicle zero; caspase activation, % (test concentration not listed); 330,000 tested, 0.066% active;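 active means over half of replicate activation scores above 10%, or exactly half above 10 with the replicate mean above 10; inconclusive means replicate mean below 10 yet half the replicates above 10; inactive means over half of replicates below 10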;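 further: wells of about 30 µL received 50 nL stock; many hits fall short of the cut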
# UCH37 inh: human UCH37 deubiquitinating enzyme inhibition; inhibition, % (no concentration beside the values); 330,000 tested, 0.33% active; purified proteasome/UCH37, Ub-AMC cleavage fluorescence; AID 588478;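 active means mean of two replicates above 20%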;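 further: 0% = compound-free wells with enzyme and 100% = wells lacking proteasome; stock transfer was 100 nL into about 20 µL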
# Target sequence (Q9Y5K5 whole entry, looked up): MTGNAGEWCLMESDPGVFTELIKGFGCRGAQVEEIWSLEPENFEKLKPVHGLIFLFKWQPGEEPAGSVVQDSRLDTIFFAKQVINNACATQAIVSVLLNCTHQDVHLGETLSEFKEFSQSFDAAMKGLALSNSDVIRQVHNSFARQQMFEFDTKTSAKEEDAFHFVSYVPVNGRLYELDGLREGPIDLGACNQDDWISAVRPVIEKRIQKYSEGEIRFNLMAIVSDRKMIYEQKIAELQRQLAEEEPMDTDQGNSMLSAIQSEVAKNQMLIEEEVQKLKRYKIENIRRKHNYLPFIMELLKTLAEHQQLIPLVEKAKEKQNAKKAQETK
#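 Material: human UCH37 enzyme supplied as purified proteasome complex. Measure: % inhibition of Ub-AMC cleavage fluorescence. Medium: pH 7.4 Tris-HCl (50 mM) with ovalbumin, ATP-MgCl2, DTT. Times: 30 min preincubation with enzyme, 25 min cleavage at room temperature. Detection: AMC fluorescence intensity at 355/460 nm.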
# Vif A3G: inhibitors of Vif binding to APOBEC3G peptide, primary screen, biochemical, TR-FRET, GST-Vif 1-94, biotin-A3G peptide, dose response retest (AID 1117319) | 260,000 tested, 0.57% active | TR-FRET GST-Vif / biotin-A3G peptide binding; higher % means a stronger effect; test concentration not given here; strong numbers were not always called active | one-dose inhibition, %; IC50 in µM for titrated hits;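 active means above the screen mean plus three standard deviations and confirmed in dose response; inconclusive means results disagree or hit not tested in dose response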;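 further: Vif residues 1-94 fused to GST binding biotinylated APOBEC3G peptide 110-148; 0% = full assay without inhibitor and 100% = GST in place of GST-Vif; retest series ran down from 100 µM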
# E coli growth: blocks Escherichia coli growth | OD600 absorbance (test concentration not listed) | AID 1053175 | OD600, 23 h; hits give low values | 330,000 tested, 0.21% active;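 active means OD600 absorbance below the run mean of sample wells minus 3.6 SD, in any replicate, cut at about 0.56 in these data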;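 further: stock transfer was 300 nL into about 60 µL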
# * = called active by the depositor; ? = inconclusive; / = not tested or not shown; & = joins results of further samples.
SMILES,B2AR ag,HNF4A DNA FP,LANA-H2A inh,A1 inh,UCH37 inh,Vif A3G,E coli growth
O=C(Nc1ccccc1)c1cccc(N2C(=O)C3C4CC(C(Br)C4Br)C3C2=O)c1 (stereo unspecified),17,2.5,1.6,0.3,1.1,1%,0.66
CCCCCCCCCCC(=O)NNC(=O)c1c(O)c2ccccc2n(CC)c1=O,/,/,-1.4,0.8,-8.1,7%,0.68
COc1ccc(S(=O)(=O)Nc2nnc(C)s2)cc1,-7,-2.8,-4.4,0.0,6.3,3%,0.71
Cc1cc(C)n(CCCNC(=O)Cn2nnnc2CN2C[C@@H](C)O[C@@H](C)C2)n1,8,0.0,1.0,-0.3,7.4,/,0.7
O=C1CSC(c2cn(-c3ccccc3)nc2-c2cc3ccccc3oc2=O)N1Cc1cccnc1 (stereo unspecified),-4,1.0,-3.2,0.0,-15,17%,0.69
COc1ccc(N=C2NC(=O)/C(=C\C=C\c3ccco3)S2)cc1,8,-19,/,/,9.6,2.2µM*,0.71
O=C(O)c1ccc(Cn2c(SCc3cc(=O)n4cc(Br)ccc4n3)nc3ccsc3c2=O)cc1,/,/,0.5,0.2,-3.5,-129%,0.69
Cc1cc(NS(=O)(=O)c2ccc(NC(=O)NC3CCCCC3)cc2)no1,-6,-2.0,-3.9,-4.2,1.6,2%,0.66
O=C(COC(=O)/C=C/c1ccccc1)NNC(=O)c1ccccc1F,-11,2.0,/,/,-0.4,-4%,0.62
CCn1nnc(NC(=O)c2c(OC)cccc2OC)n1,-2,0.9,11,-0.5,1.4,15%,0.7
COC(C[C@H]1O[C@H]1[C@@H](O)[C@@H](C)OCc1ccccc1)OC,2,-1.9,/,/,4.0,-2%,/
CC(C)(C)OC(=O)N(Cc1ccccc1)Cc1cccc(OCc2cccc(NC(=O)c3ccccc3)c2)c1,-2,4.6,/,/,/,47%,/
Cc1nc(NS(=O)(=O)c2ccccc2)sc1C(=O)NN,0,2.4,-0.3,0.5,5.3,15%,0.69
Fc1cccc(Nc2ncnc3sc4c(c23)CCC4)c1,7,0.7,-3.1,1.4,-0.6,?,0.64
O=C(Nc1ccccc1F)c1ccccc1-c1ccc(C(F)(F)F)cc1,1,4.1,-1.6,-0.3,-0.6,-5%,0.66
COc1cc(OC)cc(C(=O)N[C@H](C(=O)Nc2cc(F)ccc2C)C(C)C)c1,-1,-1.1,4.5,1.0,2.3,/,0.71
CCCCCc1ccc(-c2ccc(/C=C/C(N)=O)cc2)nc1,2,2.9,1.3,0.3,-104,/,0.7
CCN1CCN(C(=O)c2ccc(N3CC4CC(C3)c3cccc(=O)n3C4)c(NC(=O)c3cc(OC)cc(OC)c3)c2)CC1 (stereo unspecified),0,0.8,5.7,-0.5,3.9,/,0.66
Cc1nc2ccccn2c1CN(C)C(=O)C1CCC(=O)N(CCc2cccc(F)c2)C1 (stereo unspecified),6,7.3,-1.3,0.5,-6.7,4%,0.64
CC(=O)CC(=O)Nc1ccc(Cl)cn1,5,-3.8,0.7,0.6,3.7,18%,0.71
CCn1cc(CNC(=O)/C=C/c2cnn(C)c2)c(C)n1,-9,45*,1.1,-0.8,5.9,7%,0.67
COc1cccc(CNCc2ccccc2Br)c1OC,-12,2.8,0.0,-0.3,0.1,-6%,0.64
Cc1ccccc1C(=O)NNC(=S)Nc1cccc(C(F)(F)F)c1,-24,0.9,/,0.6,1.4,1%,0.66
Nc1nc(COC(=O)C2CC(=O)N(CCc3ccccc3)C2)nc(Nc2ccccc2)n1 (stereo unspecified),1,-4.5,-5.2,-0.2,1.2,-5%,0.69
NC(=O)c1ccc(N2CCN(c3ccc(O)cc3)CC2)c([N+](=O)[O-])c1,2,-0.9,0.9,0.4,/,7.1µM*,/
COc1cc(CN2CCC(C(=O)NC3CCCC3)CC2)cc(Br)c1O,17,-1.7,3.5,0.0,0.1,22%,0.73
CC1(C)CC(NC(=O)c2cc(S(=O)(=O)N3CCOCC3)c(Cl)cc2Cl)CC(C)(C)N1,14,2.9,3.0,0.9,1.9,2%,0.65
Cc1onc(-c2ccccc2)c1C(=O)OCC(=O)N(CC(C)C)c1c(N)n(Cc2ccccc2)c(=O)[nH]c1=O,-1,3.0,-1.2,0.0,3.0,2%,0.65
CCN(CC)c1ccc(NC(=O)COC(=O)CCC(=O)c2ccc(F)cc2)cc1,-8,4.9,4.4,-0.3,2.7,1%,0.72
COc1ccc(CC(=O)Nc2ccc(C(=O)O)cc2NC(=O)Cc2ccc(OC)cc2)cc1,4,-3.8,1.0,0.3,-0.3,/,0.64
Cc1nc2c(C(=O)NCCc3ccccc3Cl)c[nH]n2c(=O)c1Cl,3,-1.9,-2.5,0.0,-3.6,1%,0.66
OC1CCN(Cc2ccc(OCc3ccccc3)cc2)CC1,-2,-1.6,3.9,1.6,2.9,0%,0.69
Cc1c(NC(C)c2cc(Cl)ccc2O)c(=O)n(-c2ccccc2)n1C (stereo unspecified),26,-0.3,-7.5,0.1,1.5,-5%,0.71
COC(=O)c1sccc1NC(=O)Nc1ccc(Cl)c(Cl)c1,-1,-0.9,-1.6,-20,-1.3,22%,0.71
Cc1ccc(C)c(NC(=O)CCC(=O)NN=C2CCCC2)c1,1,1.9,2.3,-0.5,4.2,-5%,0.75
COc1cccc(OCC(O)CNC(=O)c2oc3ccc(C)cc3c2C)c1 (stereo unspecified),-2,-1.6,-4.1,0.2,3.1,/,0.62
CC(=O)Nc1ccc(NC(=O)CSc2nnc(-c3cccs3)n2N)cc1,-5,0.4,-4.4,1.2,6.5,5%,0.68
O=C(O)c1ccnc(Cl)c1,0,-5.3,6.7,-0.7,0.7,/,0.65
Cc1c(NC(=O)CSc2nc(-c3ccco3)cc(C(F)(F)F)n2)c(=O)n(-c2ccccc2)n1C,-31,-0.7,4.8,-0.9,-0.4,-1%&2%,0.74
COc1ccc(S(=O)(=O)Nc2cccc3c2O[C@H](CN(C)C(=O)Nc2c(C)noc2C)[C@@H](C)CN([C@H](C)CO)C3=O)cc1,2,-5.2,5.0,?,5.1,/,/
CC1CC1C(=O)OCC(=O)Nc1cccc(F)c1 (stereo unspecified),0,4.3,3.6,-0.6,3.3,/,0.67
CCN(CC(=O)Nc1cc(Cl)ccc1Cl)C(=O)c1ccc(-n2cccn2)cc1,-11,3.2,-4.5,-1.4,5.0,/,0.7
CCN(CC)CCCNC1=C(Cl)C(=O)c2ccccc2C1=O,4,-0.1,-1.5,-0.5,27*,13%,0.64
Cc1nc2ccc(NC(=O)Cc3ccsc3)cc2s1,-6,0.0,9.1,-5.5,3.0,-3%,0.68
CCOC(=O)CCNCc1ccc(F)cc1,-4,-4.8,1.6,0.5,0.4,-9%,0.67
Cc1ccc(S(=O)(=O)NC2=C(N3CCN(c4ccccc4F)CC3)C(=O)c3ccccc3C2=O)cc1,4&1,-3.3&-4.7,2.7,-0.7,-0.7,-8%&-5%,/
Cn1nc(C(F)(F)F)c(-c2cccc(C(F)(F)F)c2)c1NC(=O)c1ccco1,-4,0.4,0.4,0.0,4.1,-1%,0.67
CCOC(=O)C(=O)/C(C#N)=C/Nc1ccc(F)cc1,1,2.3,-8.5,0.1,13,4%,0.77
CCOCCOC(=O)c1ccc(-n2cncn2)nc1,12,1.6,-0.6,0.5,2.2,-4%,0.69
COc1ccc2c(c1)OC1(C)CC2C(C(=O)c2ccccc2OC)C(=O)N1 (stereo unspecified),4,4.4,-1.4,0.6,4.5,12%,0.73

# (next part)
SMILES,B2AR ag,HNF4A DNA FP,LANA-H2A inh,A1 inh,UCH37 inh,Vif A3G,E coli growth
Cc1cccc(NC(=O)CN(C)C(=O)c2ccc3ccccc3n2)c1C,-1,2.2,/,/,1.3,5%,0.69
Cc1ccc(S(=O)(=O)Nc2cc(C)c(O)cc2C)cc1,-2,3.8,-0.3,1.3,1.7,/,0.64
Cn1c(=O)c(S(=O)C2CCCCC2)c(O)c2ccccc21 (stereo unspecified),12,0.0,-0.4,0.0,-1.8,/,0.69
CN(C(=O)COC(=O)/C=C/c1ccc2ccccc2n1)c1c(N)n(Cc2ccccc2)c(=O)[nH]c1=O,7,-1.8,0.7,0.8,2.4,/,0.66
O=C(OCC(=O)N1CCCc2ccccc21)c1ccc(Br)o1,0,-0.5,-3.1,0.4,1.3,10%,0.68
COc1ccc(N2CC(C(=O)N(C)CC(=O)Nc3ccc(Cl)c(C(F)(F)F)c3)CC2=O)c(OC)c1 (stereo unspecified),2,-0.6,-1.0,0.1,2.6,4%,0.66
O=C(NC(=S)Nc1cccc2c(O)cccc12)c1ccco1,6,-0.1,3.6,-0.1,4.0,15%,0.71
Brc1ccc(-c2ccccc2)cc1,6,-2.7,12,0.2,/,/,/
O=c1cc(CS(=O)(=O)c2ccccc2)nc(-c2ccncc2)[nH]1,-1,0.7,-5.3,0.5,1.1,3%,0.68
COc1ccc(CCN2C(=O)CS/C2=N\NC(=O)c2cccs2)cc1OC,-7,-4.9,1.1,0.1,/,-9%,/

# 4 entries out of the list above, sorted by their value in E coli growth, largest number first:
Structure | B2AR ag | HNF4A DNA FP | LANA-H2A inh | UCH37 inh | Vif A3G | E coli growth
Cn1c(=O)c(S(=O)C2CCCCC2)c(O)c2ccccc21 (stereo unspecified) | 12 | 0.0 | -0.4 | -1.8 | / | 0.69
O=C(OCC(=O)N1CCCc2ccccc21)c1ccc(Br)o1 | 0 | -0.5 | -3.1 | 1.3 | 10% | 0.68
CN(C(=O)COC(=O)/C=C/c1ccc2ccccc2n1)c1c(N)n(Cc2ccccc2)c(=O)[nH]c1=O | 7 | -1.8 | 0.7 | 2.4 | / | 0.66
Cc1ccc(S(=O)(=O)Nc2cc(C)c(O)cc2C)cc1 | -2 | 3.8 | -0.3 | 1.7 | / | 0.64

# Next results follow.
SMILES,B2AR ag,HNF4A DNA FP,LANA-H2A inh,A1 inh,UCH37 inh,Vif A3G,E coli growth
C=CCn1c(=N)n(CC(=O)c2ccc(Br)cc2)c2ccccc21,6,-2.9,1.2,0.1,2.3,1%,0.6
O=C(NC1CCCC1)C(c1ccsc1)N(C(=O)Cc1cccs1)c1ccc(F)cc1 (stereo unspecified),-6,1.9,7.3,-1.0,0.4,?,0.68
CN(C)S(=O)(=O)c1cccc(NC(=O)COc2cccc3ccccc23)c1,10,0.8,/,/,3.6,0%,0.7
COc1ccc(N(CC(=O)Nc2ccc(C(C)C)cc2)S(=O)(=O)c2c(C)noc2C)cc1,1,2.8,-3.9,0.0,3.1,3%,0.68
COC(=O)c1cc2c([nH]c3ccccc32)c(C)n1,/,/,/,/,-129,-13%,0.73
CCOC(=O)c1sc(=S)n(C)c1NC(=O)c1ccccc1Cl,5,-2.8,-0.3,0.6,9.0,/,0.64
COc1ccc(C2=NN(C(=O)c3ccco3)C(c3cc4ccccc4nc3Cl)C2)cc1 (stereo unspecified),/,/,2.0,-0.7,-46,0%,0.68
COC(=O)N/N=C/c1cn(CCOc2ccc(OC)cc2)c2ccccc12,-19,0.5,6.7,-0.8,/,-7%,/
COc1cc(C2OC(=O)c3ccccc3S2)cc(OC)c1OC (stereo unspecified),-9,2.6,-5.0,0.0,2.6,-3%,0.67
O=C(CCSc1nnc2ccccn12)Nc1ccc(F)cc1,-5,-0.1,6.6,-0.3,1.1,-3%,0.68
CCN(CC)Cc1c(C(=O)OC(C)C)nnn1-c1nonc1N,3,3.5,2.0,0.5,3.1,0%,0.77
CC(=O)NC(CCS(C)(=O)=O)C(=O)Nc1ccccc1 (stereo unspecified),-5,-2.4,-1.2,-0.2,1.2,-1%,0.74
C/C(=N\O)c1c(C)c2ccccc2n1C,1,-0.2,5.5,0.4,/,2%,/
Cc1[nH]c2ccccc2c1C(Nc1nccs1)c1ccncc1 (stereo unspecified),1,6.8,-4.4,0.2,2.9,/,0.73
